Compound activity deposited in PubChem by several laboratories.
Mtb growth: M. tuberculosis H37Rv growth inhibitors, H37Rv strain (AID 1626); M. tuberculosis H37Rv growth inhibition; higher % means a stronger effect; one-dose inhibition, % at 10 µM; IC50 in µM for titrated hits; 0.95% of 220,000 active;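 active = confirmed in a dose series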;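 also: bacteria incubated seven days before Alamar blue readout; 0% = bacteria only wells and 100% = bacteria with antibiotic wells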
YopH PTP inh: YopH tyrosine phosphatase inhibitors, primary screen, biochemical, fluorescence Ex485/Em525; YopH tyrosine phosphatase [Yersinia enterocolitica]; AID 898, 2007; 0.16% of 140,000 active; inhibition, %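 (about 10 µM by stock and volumes)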;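 active = inhibition of 50% or more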;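 also: controls were vehicle for no effect and minimum signal wells for full effect; inactives centre near -20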
Arbovirus inh: antivirals against arbovirus infection, primary screen, cell-based, full library, 10K replicate subset. arbovirus infection cell-based antiviral screen. inhibition, % at 10 µM. 0.37% of 200,000 active. AID 1251, 2008;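 active = inhibition from about 30%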;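 also: bluetongue infection of BSR cells; cell survival read as ATP light after 72 h; 0% = infected wells without compound and 100% = uninfected wells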
Mtb betalactam: beta-lactam sensitization of Mtb H37Rv, H37Rv | 0.27% of 330,000 active | AID 434955, 2010 | M. tuberculosis H37Rv growth with meropenem, percent inhibition; hits of this screen are not shown here | inhibition, % at 25 µM;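 active = about 74% or more and at least 40 points above the plate without the antibiotic, then above 30% in a dose series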;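 also: growth measured after seven days incubation then overnight dye step; 0% = bacteria only wells and 100% = bacteria with antibiotic; twin plates without the antibiotic show which effects depend on it; some results filed as inactive read as strong as hits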
RecA splice inh: Mtb RecA intein splicing inhibitors, primary screen, biochemical, fluorescence, HTS; Protein RecA (Mycobacterium tuberculosis (strain ATCC 25618 / H37Rv)), P9WHJ3; cell-free RecA intein splicing; inhibition, %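 (about 9 µM by stock and volumes)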; 0.75% of 290,000 active; in the data active = inhibition above about 30%;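 also: 0% = vehicle wells and 100% = reference inhibitor control wells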
Target sequence (P9WHJ3 whole entry, looked up, canonical isoform): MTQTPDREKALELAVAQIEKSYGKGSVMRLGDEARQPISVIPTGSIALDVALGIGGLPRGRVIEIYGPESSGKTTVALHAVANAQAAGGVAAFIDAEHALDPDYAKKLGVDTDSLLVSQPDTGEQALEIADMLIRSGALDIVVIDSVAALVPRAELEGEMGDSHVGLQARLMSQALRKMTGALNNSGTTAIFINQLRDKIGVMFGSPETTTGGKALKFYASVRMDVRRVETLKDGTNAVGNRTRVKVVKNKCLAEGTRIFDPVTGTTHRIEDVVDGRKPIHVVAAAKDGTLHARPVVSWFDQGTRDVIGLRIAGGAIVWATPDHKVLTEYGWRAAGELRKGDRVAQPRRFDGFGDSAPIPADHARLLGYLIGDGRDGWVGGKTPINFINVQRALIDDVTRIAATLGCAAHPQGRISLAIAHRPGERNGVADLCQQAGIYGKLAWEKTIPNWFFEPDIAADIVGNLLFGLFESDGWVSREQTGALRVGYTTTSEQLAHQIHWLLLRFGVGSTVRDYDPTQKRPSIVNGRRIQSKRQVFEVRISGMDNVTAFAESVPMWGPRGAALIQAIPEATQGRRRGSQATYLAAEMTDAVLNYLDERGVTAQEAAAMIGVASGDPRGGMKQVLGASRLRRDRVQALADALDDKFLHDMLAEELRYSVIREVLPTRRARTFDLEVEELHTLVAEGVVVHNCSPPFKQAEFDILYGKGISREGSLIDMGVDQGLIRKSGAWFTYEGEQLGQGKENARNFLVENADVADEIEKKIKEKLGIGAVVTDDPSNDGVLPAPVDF
Arbovirus inh repeat: further read-out of Arbovirus inh, marked with its call; inhibition, %; measured here: 10K subset replicate screen; many hits read low in the repeat;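 first of two repeat runs on a subset; 0% = infected and 100% = uninfected wells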
The depositor's hits bear a star; · = not tested or not shown. An excerpt; the hit share may differ from the screen's.

SMILES	Mtb growth	YopH PTP inh	Arbovirus inh	Mtb betalactam	RecA splice inh	others
CN1CCN(CCOc2cccc(Cl)c2)CC1	-1%	-13	1	0	0.6
CCN(c1ccccc1)S(=O)(=O)c1cc(NC(=O)COC(=O)C2CC2)ccc1Cl	-1%	·	3	8	2.0
COC(=O)COc1ccc2cc(-c3ccccc3)c(=O)oc2c1	·	·	·	100	-1.7
CCN(CC)c1cccc(OC(=O)c2cccnc2Cl)c1	·	·	·	0	2.5
Cn1c(SCC(=O)Nc2ccc(NC(=O)c3cccc(F)c3)cc2)nnc1-c1ccncc1	·	·	·	-1	-3.9
CCN1C(=O)[C@H]2[C@@H](c3ccc(C)cc3)N3C(=O)N(c4cccc(Cl)c4)C(=O)[C@@]3(CC(C)C)[C@H]2C1=O	·	·	·	-8	3.0
Cc1ccnc(NC(=O)C2CCN(S(=O)(=O)c3ccc4c(c3)CC(C)N4C(=O)C3CCC3)CC2)c1 (configuration not stated)	·	·	·	47	1.2
CC(Oc1ccc(-c2ccccc2)c(F)c1)c1ccn(S(=O)(=O)c2ccc(Br)cc2)n1 (configuration not stated)	-2%	-34	2	11	0.6
Clc1ccc(-c2nc3ccc(Cl)cn3c2CN2CCCCC2)cc1	·	·	·	65	11
CCOCCCNC(=O)c1ccc(OC2CCN(C(C)=O)CC2)c(OC)c1	·	·	·	2	-39
COc1ccc(OCCSc2nnc(-c3ccc(OC)cc3)n2N)cc1	-9%	5	7	-5	-0.7
CC(C)(C)OC(=O)N1CCC[C@H]1c1nnc(SCc2ccccc2F)o1	-6%	-28	-7	-7	1.5
O=C(c1ccccc1[N+](=O)[O-])N1CCN(c2ccc(N3CCOCC3)nn2)CC1	·	·	·	-2	-2.1
CN1C[C@@H]2C(c3ccccc3)C3(c4ccccc4)CC2(C3)[C@H]1c1ccccc1 (some centres not stated)	7%	·	·	-1	15
O=C(CCS(=O)(=O)c1ccccc1)Nc1nc(-c2cccs2)cs1	-1%	-19	-2	31	-2.1
Cn1c(=O)c2c(ncn2CC(=O)Nc2ccc(N3CCOCC3)cc2)n(C)c1=O	-4%	-17	4	4	2.2
Cc1c(N2C(=O)/C(=C3/C(=O)N(C)c4ccccc43)SC2=S)c(=O)n(-c2ccccc2)n1C	-6%	-29	5	-3	-1.3
CCc1nnc(NC(=O)CSc2nc(C)cc(C)c2C#N)s1	-2%	·	-3	2	0.5
COc1ccc(C(=O)Nc2ccccc2C(=O)N/N=C/c2ccccc2OC)cc1	-9%	-28	-7	4	·
Cc1ccc(S(=O)(=O)NCCC(=O)Nc2cc(S(=O)(=O)N(C)C)ccc2C)cc1C	·	·	·	-5	0.0
Cc1cccc(S(=O)(=O)Nc2cccc3c2C(=O)c2ccccc2-3)c1	-13%	-15	3	-1	-1.1
Cc1cc(=O)[nH]c(Nc2ccc(N(C)C)cc2)n1	·	·	·	-16	-4.0
COC(=O)Cc1ccc(NC(=S)NCc2ccc(OC)cc2)cc1	6%	·	2	-5	5.0
Cc1ccc(CN2CC(C(=O)N3CCN(S(=O)(=O)c4ccc(C(C)C)cc4)CC3)CC2=O)cc1 (configuration not stated)	·	·	·	-2	1.6
CCc1ccc(OCc2nc(-c3ccccn3)no2)c(Br)c1	5%	-20	-18	5	7.7
SMILES	Mtb growth	YopH PTP inh	Arbovirus inh	Mtb betalactam	RecA splice inh	others
CC(=O)N(/N=C1\Sc2ccccc2C1=O)c1ccc(C)cc1C	1%	-92	-8	1	1.7
COc1cc(CN2CCCC(C(=O)c3ccccc3SC)C2)cc(OC)c1 (configuration not stated)	23µM*	·	-2	99	1.7
NCCOc1ccccc1OCCN	-2%	·	6	4	0.1
Cc1ccc(/C=N/NC(=O)Cn2nc(C)c([N+](=O)[O-])c2C)o1	0%	·	·	-2	·
CC1=CC(C)(C)N(C(=O)c2ccccc2)c2ccccc21	-1%	-11	-13	7	3.8
O=C(CSc1ccccn1)c1ccc(F)cc1	-5%	-22	-4	-2	-1.3	Arbovirus inh repeat=-5
CCOC(=O)c1ccc2c(c1)NCc1cccc(OC)c1O2	-3%	·	·	-4	-1.8
COC(=O)CSc1nc2ccc(C)cc2cc1C#N	-2%	·	-6	7	-1.8
CN(C)Cc1nc2ccccc2c(=O)n1Cc1nc(-c2cc3ccccc3o2)cs1	-3%	-28	2	56	2.2
CN(C)N1C(N)=C(C#N)C(c2ccc(F)cc2)C2=C1CC(C)(C)CC2=O (configuration not stated)	·	·	·	-3	-2.0
CC1CCCCC1NC(=O)CCNS(=O)(=O)c1cc(Br)cnc1N (configuration not stated)	·	·	·	-6	1.6
Cc1nc2ccc(F)cc2cc1C(=O)Nc1cccc(Cl)c1C	5%	-27	1	3	-0.8
O=C(NC1CC1)C1CCN(C(=O)c2ccc(Cl)cc2)CC1	·	·	·	-3	-3.1
O=C(N=C1SC2CS(=O)(=O)CC2N1c1ccc(Br)cc1Cl)C1CC1 (configuration not stated)	·	·	·	2	-5.3
Cc1ccc2c(c1)N(S(=O)(=O)c1ccc(CN3C(=O)c4cccnc4C3=O)cc1)CCO2	·	·	·	-1	2.1
Cn1cccc1C(=O)C(=O)Nc1ccc(Cl)cc1	-1%	6	-10	2	-3.5
Cc1[nH]nc2c1C(c1ccsc1C)C(C#N)=C(N)O2 (configuration not stated)	-8%	-28	2	-5	48*
Cc1cc(C(=O)OC(C)C(=O)NC2CCCCC2C)c(C)o1 (configuration not stated)	·	·	·	-2	-1.2
CCOC(=O)c1ccc(-c2ccc3c(=O)c4ccccc4n(C)c3c2)cc1F	·	·	·	98	-8.7
O=C(c1ccc(OC2CCN(C/C=C/c3ccc(F)cc3)CC2)cc1)N1CCCC1	·	·	·	7	2.0
COc1ccc(CN2C(=O)c3ccccc3C2C(=O)NC2CCCC2)c(OC)c1 (configuration not stated)	-2%	2	-2	-6	-3.6
O=C(Cn1cnc2c(nnn2-c2ccccc2)c1=O)NCc1ccc(F)cc1	-3%	·	-1	-2	-5.8
O=C(O)c1ccccc1C(=O)OCCCCOC(=O)c1ccccc1C(=O)O	-5%	-39	6	9	-0.4
COc1cc(C(=O)Nc2ccc3c(c2)CCN3C(C)=O)cc(OC)c1OC	-1%	·	-16	4	2.5
CCc1nc(SCC(=O)NCCc2ccccc2)c2oc3ccccc3c2n1	10%	19	3	14	-3.5
SMILES	Mtb growth	YopH PTP inh	Arbovirus inh	Mtb betalactam	RecA splice inh	others
Cc1noc(C)c1S(=O)(=O)Nc1ccc(C(=O)Nc2ccc(OC(F)(F)F)cc2)cc1	·	·	·	58	4.0
CCCn1ncc(CN2CCC(CO)(CC3CCCCO3)CC2)c1C (configuration not stated)	-4%	·	-5	-3	-1.0
O=C(Cc1cccs1)Nc1nc(-c2cccnc2)cs1	-3%	·	·	-9	0.1
O=C(O)c1cccc(NS(=O)(=O)c2cc(S(=O)(=O)c3ccc(Cl)cc3)ccc2Cl)c1	·	·	·	-9	-0.6
CS(=O)(=O)N(CCC#N)Cc1ccc(C=O)o1	0%	·	-1	-5	-2.0
CC(C)(C)NCc1ccccc1OCc1cccs1	-7%	-25	2	-3	-0.8
CCc1cc(=O)oc2cc(C)cc(OCC(=O)NCCCn3ccnc3)c12	·	·	·	3	-1.6
COC(=O)C1=C(C(=O)OC)[C@@H]2N(Cc3ccccc3)c3ccccc3[C@@]23C[C@@H](C(=O)OC)N(C(=O)c2ccc(Br)cc2)C3=N1	·	·	·	-3	-0.9
CCN(C(=O)COC(=O)c1cc(-c2ccc3cc(OC)ccc3c2)nc2ccccc12)C1CCS(=O)(=O)C1 (configuration not stated)	11%	-26	-8	6	-17
Cc1cc(NC(=O)CSc2nnnn2-c2cc(Cl)ccc2C)no1	·	·	·	6	2.9
O=c1cc(C(F)(F)F)[nH]c(=O)n1C1CCCCC1	5%	-41	7	13	-1.2
c1ccc(SCCOCCN2CCc3ccccc3C2)cc1	-2%	-23	-4	-3	-0.3
c1ccc(CCn2nnnc2C(c2cccnc2)N2CCN(c3ccccc3)CC2)cc1 (configuration not stated)	-14%	-30	-6	2	2.2
CC(C)(C)C(=O)/C=C/c1ccc(Oc2ccccc2)cc1	6%	·	·	3	9.2
N=C1S/C(=C\c2ccco2)C(=O)N1c1nccs1	<0.2µM*	·	-30	92	1.6
Cc1ccc(S(=O)(=O)C2(C(=O)N3CCN(c4ccccc4F)CC3)CC2)cc1	·	·	·	0	-4.6
CC1CN(C(c2cccs2)c2sc3ncnn3c2O)CC(C)O1 (configuration not stated)	-2%	-40	1	-4	-6.7	Arbovirus inh repeat=5
Cn1ccc(NC(=O)Nc2cccc(C(F)(F)F)c2)n1	7%	·	3	4	0.8
CCOC(=O)c1ccc(N2CN(C3CCCCC3)CNC2=S)cc1	41%	-35	-8	·	2.3
CCOc1ncccc1C(=O)N=C1SCCN1C(=O)c1cccnc1OCC	0%	·	5	-10	-2.1
O=C1OCC/C1=C\c1ccc(O)cc1	-8%	·	·	0	-0.9
O=C(c1ccc(Cn2cc(Br)cn2)cc1)N1N=C(C(F)F)CC1(O)C(F)F (configuration not stated)	13%	-13	24	4	1.6
O=C(c1cc2nc(-c3ccccc3)cc(-c3ccccc3)n2n1)N1CCCC1	-3%	·	-1	3	-11
CC1(C)C2CCC1(CS(=O)(=O)N1CCOCC1)C(=O)C2 (configuration not stated)	7%	-19	12	-19	-2.1
Cc1ccccc1OCC(=O)N/N=C/c1ccc(Sc2nc3ccccc3s2)o1	11%	-7	-11	-2	-2.6

Sorted by count of non-hydrogen atoms (descending): some entries from above
SMILES	Mtb growth	YopH PTP inh	Arbovirus inh	Mtb betalactam	RecA splice inh	others
CCc1cc(=O)oc2cc(C)cc(OCC(=O)NCCCn3ccnc3)c12	·	·	·	3	-1.6
CCCn1ncc(CN2CCC(CO)(CC3CCCCO3)CC2)c1C (configuration not stated)	-4%	·	-5	-3	-1.0
Cn1ccc(NC(=O)Nc2cccc(C(F)(F)F)c2)n1	7%	·	3	4	0.8

Gathered by group: those above containing a COOH group
SMILES	Mtb growth	YopH PTP inh	Arbovirus inh	Mtb betalactam	RecA splice inh	others
O=C(O)c1ccccc1C(=O)OCCCCOC(=O)c1ccccc1C(=O)O	-5%	-39	6	9	-0.4
O=C(O)c1cccc(NS(=O)(=O)c2cc(S(=O)(=O)c3ccc(Cl)cc3)ccc2Cl)c1	·	·	·	-9	-0.6

(continued)
SMILES	Mtb growth	YopH PTP inh	Arbovirus inh	Mtb betalactam	RecA splice inh	others
CS(=O)(=O)Nc1nc2n(n1)C(c1ccc(F)cc1)CC(c1ccccc1)N2 (configuration not stated)	-4%	·	·	-7	-4.1
COc1ccc(CNC(=O)CN(Cc2ccc(OC)cc2)C(=O)c2csnn2)cc1	5%	·	-3	0	-0.1
Cc1ccc(C)c(N2CCN(C(=O)Cn3cccc3)CC2)c1	-3%	-44	5	-3	12
c1ccc(-c2ccc(C3CCCN3)cc2)cc1 (configuration not stated)	-6%	·	·	2	90*
CCCCCCCCNC(=O)c1cnsn1	10%	-1	7	23	·
COC(=O)c1sc(NC(=O)c2ccc(C)o2)nc1C	-12%	13	-15	-1	-0.2
CC(=O)Nc1c(O)nc(SCC(=O)Nc2c(C)cccc2C)[nH]c1=O	-13%	-30	-1	-2	-1.2
Cc1noc(C)c1COC(=O)/C=C/c1ccccc1Cl	24%	·	1	70	-0.2
O=C1NC(=O)N(c2cccc(Cl)c2)C(=O)/C1=C\c1ccc(Sc2nc3ccccc3[nH]2)o1	-6%	-2	0	4	11
O=C(Nc1ccccc1N1CCN(c2ccccc2)CC1)C1CCCCC1	2%	·	·	-2	0.3
O=C(c1cc(-c2ccco2)on1)N1CCCc2ccccc21	5%	-41	-7	53	7.4
Cc1ccc2oc(=O)n(CC(=O)c3ccc(F)cc3)c2c1	-4%	·	·	-4	0.2

Looked up by structure from above (2):
SMILES	Mtb growth	YopH PTP inh	Arbovirus inh	Mtb betalactam	RecA splice inh	others
COc1ccc(CNC(=O)CN(Cc2ccc(OC)cc2)C(=O)c2csnn2)cc1	5%	·	-3	0	-0.1
O=C(Nc1ccccc1N1CCN(c2ccccc2)CC1)C1CCCCC1	2%	·	·	-2	0.3
